Mtb H37Rv: M. tuberculosis H37Rv growth inhibitors, H37Rv strain (AID 1626). M. tuberculosis H37Rv growth inhibition; higher % means a stronger effect. inhibition, % at 10 µM; hits with a dose series show IC50 in µM. hit rate 0.95% among 220,000;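 active = confirmed in a dose series; inconclusive = inhibition above 80% but not taken into the dose series; inactive = below 80% or under 30% at every dose of the series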;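 note: bacteria incubated seven days before Alamar blue readout; 0% = bacteria only wells and 100% = bacteria with antibiotic wells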
RecA intein inh: Mtb RecA intein splicing inhibition. cell-free RecA intein splicing, fluorescence. hit rate 0.75% among 290,000. inhibition, %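 (about 9 µM by stock and volumes)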. P9WHJ3. AID 2221; in the data active = inhibition above about 30%; inconclusive = no clear call, values can overlap the other calls;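 note: 0% = vehicle wells and 100% = reference inhibitor control wells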
Target sequence (P9WHJ3 whole entry, looked up): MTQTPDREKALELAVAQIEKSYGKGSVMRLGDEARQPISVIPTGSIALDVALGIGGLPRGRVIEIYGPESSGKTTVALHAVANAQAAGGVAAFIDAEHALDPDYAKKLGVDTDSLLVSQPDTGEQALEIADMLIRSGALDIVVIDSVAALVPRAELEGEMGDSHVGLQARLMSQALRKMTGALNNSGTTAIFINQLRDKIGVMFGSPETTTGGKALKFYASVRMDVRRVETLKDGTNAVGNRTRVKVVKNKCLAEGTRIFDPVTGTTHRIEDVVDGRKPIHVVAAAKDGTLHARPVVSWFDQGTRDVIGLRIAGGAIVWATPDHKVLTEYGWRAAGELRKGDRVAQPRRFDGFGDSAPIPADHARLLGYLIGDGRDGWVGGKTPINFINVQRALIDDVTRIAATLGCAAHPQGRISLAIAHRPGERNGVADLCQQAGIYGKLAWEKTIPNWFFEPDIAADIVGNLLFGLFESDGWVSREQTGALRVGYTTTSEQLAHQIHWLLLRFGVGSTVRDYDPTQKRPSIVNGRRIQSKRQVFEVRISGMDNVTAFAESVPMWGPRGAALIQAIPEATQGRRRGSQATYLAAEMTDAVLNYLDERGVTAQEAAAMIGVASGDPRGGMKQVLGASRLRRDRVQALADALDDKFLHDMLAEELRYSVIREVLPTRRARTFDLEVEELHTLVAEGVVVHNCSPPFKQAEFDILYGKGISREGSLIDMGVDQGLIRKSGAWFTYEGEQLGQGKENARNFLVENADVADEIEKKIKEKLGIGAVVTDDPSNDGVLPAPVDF
Arbovirus anti: antivirals against arbovirus infection. arbovirus infection cell-based antiviral screen. inhibition, % at 10 µM. hit rate 0.37% among 200,000;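 active = inhibition from about 30%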;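 note: bluetongue infection of BSR cells; cell survival read as ATP light after 72 h; 0% = infected wells without compound and 100% = uninfected wells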
YopH inh: inhibitors of Yersinia enterocolitica YopH tyrosine phosphatase; AID 898; hit rate 0.16% among 140,000; inhibition, %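 (about 10 µM by stock and volumes)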; fluorescence Ex485/Em525;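 active = inhibition of 50% or more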;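 note: controls were vehicle for no effect and minimum signal wells for full effect; inactives centre near -20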
Mtb betalactam: beta-lactam sensitization of Mtb H37Rv; M. tuberculosis H37Rv growth with meropenem, percent inhibition; hits of this screen are not shown here; inhibition, % at 25 µM; hit rate 0.27% among 330,000;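 active = about 74% or more and at least 40 points above the plate without the antibiotic, then above 30% in a dose series; inconclusive = first-round hits that could not be retested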;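 note: growth measured after seven days incubation then overnight dye step; 0% = bacteria only wells and 100% = bacteria with antibiotic; twin plates without the antibiotic show which effects depend on it; some results filed as inactive read as strong as hits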
Arbovirus anti repeat: second read-out of Arbovirus anti, no call of its own (marks repeat the call); inhibition, %; measured here: 10K subset replicate screen; many hits read low in the repeat;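 first of two repeat runs on a subset; 0% = infected and 100% = uninfected wells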
Numbers without * were called inactive; ? = inconclusive; · = not tested or not shown.

Start of the listing, in advance, 4 compounds:
SMILES	Mtb H37Rv	RecA intein inh	Arbovirus anti	YopH inh	Mtb betalactam	others
CSCCC(NC(=O)COc1ccccc1)C(=O)OCC(=O)c1ccccc1 (stereo unspecified)	·	-2.6	·	·	-5
C=CCc1ccc(OCC(O)CN2CCN(Cc3ccc(Cl)cc3)CC2)c(OC)c1 (stereo unspecified)	14%	0.5	-33	-13	90
O=C(Nc1ccccc1)C1=C[C@@H](c2ccc(Br)cc2)C[C@@H](OCc2ccc(CO)cc2)O1	-3%	19	-6	·	43
CCNC(=O)C1CC(=O)N(Cc2ccc3c(c2)OCO3)C(=Nc2ccc(F)cc2)S1 (stereo unspecified)	-4%	-0.9	-5	-29	-5

Main list, from the first entry:
SMILES	Mtb H37Rv	RecA intein inh	Arbovirus anti	YopH inh	Mtb betalactam	others
CSCCC(NC(=O)COc1ccccc1)C(=O)OCC(=O)c1ccccc1 (stereo unspecified)	·	-2.6	·	·	-5
C=CCc1ccc(OCC(O)CN2CCN(Cc3ccc(Cl)cc3)CC2)c(OC)c1 (stereo unspecified)	14%	0.5	-33	-13	90
O=C(Nc1ccccc1)C1=C[C@@H](c2ccc(Br)cc2)C[C@@H](OCc2ccc(CO)cc2)O1	-3%	19	-6	·	43
CCNC(=O)C1CC(=O)N(Cc2ccc3c(c2)OCO3)C(=Nc2ccc(F)cc2)S1 (stereo unspecified)	-4%	-0.9	-5	-29	-5
FC(F)(F)c1cnc(Nc2ccc(N3CCOCC3)cc2)c(Cl)c1	-2%	3.5	-1	-36	3
O=C(CCCc1ccccc1)NC12CC3CC(CC(C3)C1)C2	·	5.0	·	·	99
Cn1c(C(=O)O)c(CC(=O)Nc2ccc(F)cc2F)c2ccccc21	-4%	3.5	2	-55	1
NC(=O)C1(c2ccccc2)OC1c1ccccc1 (stereo unspecified)	·	-1.1	·	·	-7
Cc1cc(C)n2c(SCC(=O)Nc3ccccc3)nnc2n1	-5%	0.1	9	-14	2	Arbovirus anti repeat=4
CCOc1ccc(-n2c(SCC(=O)NC)nnc2-c2ccco2)cc1	·	1.5	·	·	-6
Cc1ccc(S(=O)(=O)N2C(=O)CCC2C(N)=O)cc1 (stereo unspecified)	·	-2.0	·	·	2
OCCNCCCCOc1cccc(Br)c1	-1%	0.2	-13	-16	3
Cc1ccc(CNC(=O)c2cc(S(=O)(=O)N3CCOCC3)cn2C)cc1	·	-1.8	·	·	-8
CCOc1ccc(N2CC(NS(=O)(=O)c3cccnc3)CC2=O)cc1 (stereo unspecified)	·	-1.4	·	·	-10
CC(C)(C)c1ccc(C(=O)NC(=S)NCc2ccco2)cc1	·	8.3	·	·	75
CCCCN(C(=O)c1ccco1)c1nnc(-c2cc(OC)c(OC)c(OC)c2)s1	-2%	-1.3	-12	-32	-7
CC(C)(C)NNC(=S)Nc1ccc(S(=O)(=O)N2CCOCC2)cc1	-2%	-2.9	10	·	-4
CC(CN1CCCCC1)NC(=O)c1cc(-c2ccccn2)nc2ccc(Cl)cc12 (stereo unspecified)	4%	3.1	-10	·	-7
CC(C)(C)c1[nH]ncc1[N+](=O)[O-]	4%	-3.7	22	·	-2
O=C(N/N=C/c1ccco1)C1CC1(c1ccccc1)c1ccccc1 (stereo unspecified)	1%	1.1	4	-9	-1
O=C(O)C1Nc2c(O)cc(Cl)c([N+](=O)[O-])c2C2C=CCC12 (stereo unspecified)	-2%	43*	23	·	7
COc1ccc(N(CC(=O)Nc2ccccc2C(=O)N2CCOCC2)S(=O)(=O)c2ccc(F)cc2)cc1	0%	3.1	-7	-16	-3
CCOC(=O)c1ccc[n+](C(C)C(=O)c2ccc(-c3ccccc3)cc2)c1 (stereo unspecified)	4%	0.2	-1	-28	-3
COc1ccc(-c2csc(NC(=O)CCS(=O)(=O)c3ccccc3)n2)c(OC)c1	1%	2.9	·	·	0
CN(C)/C=C/c1c(C#N)c(=O)ncn1Cc1ccccc1	-2%	-1.0	-7	3	4
O=C(CCS(=O)(=O)c1ccccc1)Nc1nnc(-c2ccco2)o1	·	0.0	·	·	?
COc1cc(OC)cc(-c2cc3nc(C4CCN(C(=O)OC(C)(C)C)CC4)cc(=O)n3[nH]2)c1	-11%	-0.3	-3	-4	-4
O=[N+]([O-])c1cc(C(F)(F)F)ccc1NCCc1ccncc1	·	0.3	·	·	2
CCOC(=O)c1c(S(=O)(=O)NCC(=O)Nc2cccc(C)c2)c(C)n(C)c1C	·	-2.7	·	·	-3
CCCS(=O)(=O)c1c(S(=O)(=O)CCC)c2c(N)cccn2c1C(=O)c1ccccc1	-3%	3.4	-25	1	-5
O=C1CCCc2c1nn(-c1ccccc1)[n+]2[O-]	-2%	2.1	4	28	-9
O=C(O)c1cccc(NC(=O)c2cn(-c3ccccc3)nc2-c2ccc([N+](=O)[O-])cc2)c1	·	3.4	·	·	-5
COc1ccc(OCCOC(=O)CNC(=O)c2ccc(C)cc2)cc1	·	-4.2	·	·	-11
CC(=O)NC(C)C(=O)OCc1ccc(Cl)cc1Cl (stereo unspecified)	-8%	1.4	2	-3	-7
CCOC(=O)c1sc(NC(=O)/C=C/c2cnn(C)c2C)c(C(=O)OC(C)C)c1C	1%	-9.5	4	-33	2
CSCCC(NC(=O)c1ccccc1)c1nc(-c2ccccc2)no1 (stereo unspecified)	3%	3.0	-2	-37	·
CCOc1cccc(NC(=O)c2ccc(S(=O)(=O)N3CCCC3)cc2)c1	3%	0.4	-14	·	2	Arbovirus anti repeat=-2
Cc1cc(F)ccc1S(=O)(=O)N1CCCOC1CNC(=O)C(=O)NCCc1c[nH]c2ccccc12 (stereo unspecified)	-1%	-0.2	-22	-25	-3
O=C1CN(CC(=O)Nc2cccc(Cl)c2Cl)c2ccccc2N1	4%	2.8	-8	·	-3
Cc1ccc(C2C(C(=O)c3cccs3)=C(O)C(=O)N2c2ccc(S(N)(=O)=O)cc2)cc1 (stereo unspecified)	-4%	2.4	·	·	-2
Cn1c(=O)[nH]c2nncnc2c1=O	·	7.4	·	·	4
COc1ccc(S(=O)(=O)N(C)CC(=O)Nc2ccc(C(N)=O)cc2)cc1OC	-2%	-2.8	-5	·	0
CCN(CC)S(=O)(=O)c1cccc(-c2nnc(SCC(=O)NC)n2N)c1	-8%	0.0	3	·	3
O=C(NC1CCCCC1)C(c1ccncc1)N(C(=O)c1ccco1)c1ccc(F)cc1 (stereo unspecified)	·	-2.1	·	·	-7
Cc1ccccc1NC(=S)N1CCN(Cc2ccccc2)CC1	5%	·	6	-15	1
N#Cc1c(NC(=O)C2CC(c3c(F)cccc3Cl)=NO2)sc2c1CCC2 (stereo unspecified)	4%	1.4	0	-13	-4
COc1ccccc1NC(=O)Nc1ccc(CC#N)cc1	-12%	0.4	·	·	-1
Cc1c(C(=O)C(=O)N2CC=C(c3ccccc3)CC2)c2ccccc2n1C	5%	-0.2	-7	-16	1
CCN(CC)c1ccc(NC(=O)c2ccccc2OCC(=O)OC)cc1	0%	-4.8	5	·	2
COc1ccc(OC)c(/C=N/NC(=O)C(=O)NCc2cccnc2)c1	5%	-2.3	-3	·	0

(cont.)
SMILES	Mtb H37Rv	RecA intein inh	Arbovirus anti	YopH inh	Mtb betalactam	others
O=C1NCCCC1C(=O)Nc1ccccn1 (stereo unspecified)	-8%	1.5	-1	-36	-13
CC(=O)N/C(=C/c1ccc2c(c1)OCO2)C(=O)NCc1ccccc1	-5%	-0.8	2	·	-6
Cc1noc(C)c1CSCC(=O)Nc1cc(Cl)ccc1N1CCCCC1	·	15	·	·	4
CCNC(=S)NCc1ccc(F)cc1	10%	-2.8	6	16	-8
COc1ccccc1-n1nc(C(=O)NCc2ccco2)c2ccccc2c1=O	7%	·	4	-20	5
CCC1=C(OC(=O)N(CC)CC)N2C(=O)OC(=NCC3CC3)[C@]2(Cc2ccccc2)[C@H]2C1=CC[C@H]1C(=O)N(C)C(=O)[C@H]12	-3%	-2.9	·	·	-2
CNC(=O)CSc1nnc(COc2ccc([N+](=O)[O-])cc2)n1C	5%	1.0	3	·	0
Brc1cc(/C=N/n2cnnc2)oc1Br	-4%	1.2	-1	·	5
Cc1ccc(NC(=O)CSCC(=O)N2c3ccccc3CCc3ccccc32)cc1	8%	27	-23	-32	4
CCOC(=O)C1=C(C)OC(N)=C(C#N)C1c1cc(C)sc1C (stereo unspecified)	-5%	1.0	7	5	-3
CCCc1cc(C(=O)Cc2ccc(C(=O)OCC)o2)c(O)cc1O	-13%	1.6	6	-27	1
O=C(CCc1ccccc1)Nc1sc2c(c1C(=O)O)CCCC2	·	-1.7	·	·	3
CC1CC(OCC(O)CN2CCOCC2)CC(C)(C)C1 (stereo unspecified)	-1%	-14	-8	-4	-6
C#CCNC(=O)C1=C[C@H](c2ccc(Br)cc2)C[C@H](OCc2ccc(CO)cc2)O1	-4%	6.9	4	·	-1
CC(/C=N/NC(=O)CN1CCN(Cc2ccc(Cl)cc2)CC1)=C\c1ccco1	-2%	1.2	4	-12	3
O=C(Nc1ccc2c(c1)OCO2)c1ccc(Cl)c(S(=O)(=O)N2CCOCC2)c1	·	1.9	·	·	-5
CC1CCCCN1S(=O)(=O)c1ccc([N+](=O)[O-])cc1 (stereo unspecified)	·	1.4	·	·	7
COCCn1nnnc1CN1CCC(C)CC1	-5%	0.0	5	-26	-1
COCCn1c(SCc2ccc(C)cc2)nc2c1c(=O)[nH]c(=O)n2C	·	0.6	·	·	-9
CCN(CC)CCSc1nc(O)c(Cc2ccccc2)c(=O)n1-c1ccccc1	4%	-0.7	11	·	0
Cc1cccc(C)c1NCC(=O)N1CCN(Cc2ccccc2)CC1	·	-0.5	·	·	0
Cc1ccc(Cl)cc1N1CCN(S(=O)(=O)c2c(C)[nH]c(C)c2C(=O)N2CCCCC2)CC1	·	-1.1	·	·	12
COc1cc(C(=O)N(Cc2cccc(Cl)c2)C2CCS(=O)(=O)C2)cc(OC)c1OC (stereo unspecified)	-2%	-2.4	12	-15	-5
COc1ccccc1C1(O)CCN(C(=O)c2cccs2)CC1	·	-0.8	10	-25	-16
COc1ccc(-c2nc(CCNC(=O)c3cccs3)cs2)cc1	4%	2.5	-9	7	-4
CCN1CCN(C(=O)/C=C/c2ccc(C)cc2)CC1	·	1.0	·	·	2
C/C(CCC1CC(C)OC1=O)=N\NC(N)=S (stereo unspecified)	4%	-2.0	·	·	-9
COc1cc2cc(C(=O)O)[nH]c2c(OC)c1OC	-12%	0.5	6	-2	2
COc1cc2[nH]c(C(=O)N3CCN(C)CC3)cc2c(OC)c1OC	·	-2.2	·	·	-3
COc1ccc(N2C(=O)CC(Sc3n[nH]c(-c4ccccc4)n3)C2=O)cc1 (stereo unspecified)	0%	3.0	·	·	0

Quoted at random: 2 entries already listed.
SMILES	Mtb H37Rv	RecA intein inh	Arbovirus anti	YopH inh	Mtb betalactam	others
COc1ccccc1C1(O)CCN(C(=O)c2cccs2)CC1	·	-0.8	10	-25	-16
COc1ccc(N2C(=O)CC(Sc3n[nH]c(-c4ccccc4)n3)C2=O)cc1 (stereo unspecified)	0%	3.0	·	·	0

(listing goes on)
SMILES	Mtb H37Rv	RecA intein inh	Arbovirus anti	YopH inh	Mtb betalactam	others
COc1ccccc1OCC#CCN1CCOCC1	-2%	1.0	3	·	2
Cc1onc(-c2ccccc2Cl)c1C(=O)OCC(=O)c1ccc[nH]1	·	3.6	·	·	-6
CCc1nc(SC)[nH]c(=O)c1C	8%	0.4	2	-32	-7
O=C(Nc1ccc(Cl)cc1C(=O)c1ccccc1)c1ccccc1	·	13	-2	5	47
CC1=C(C(=O)OCC2CCCO2)C(c2ccc(C)o2)C2=C(CC(c3ccc(N(C)C)cc3)CC2=O)N1 (stereo unspecified)	3%	·	-4	-32	·
CN(C)CCc1c[nH]c2ccc(Cn3cncn3)cc12	-5%	-1.5	·	·	-6
Cc1cc(F)ccc1NC(=O)C1CCN(S(=O)(=O)c2ccc3c(c2)CCCC(=O)N3)CC1	·	0.4	·	·	1
CCN(CC)c1ccc(/C=N/n2c(=S)[nH]nc(C)c2=O)cc1	1%	-0.3	4	-9	1
COc1ccc(CCNC(=O)CCC(=O)N2CC(C)Oc3ccccc32)cc1OC (stereo unspecified)	·	0.4	·	·	9
COc1ccccc1N1CCN(C(=O)CSc2nc(C)cc(=O)[nH]2)CC1	-6%	-0.1	2	-11	2
O=C(Nc1cc(Cl)cc(Cl)c1)N1CCN(C(=O)C2CCCO2)CC1 (stereo unspecified)	·	-0.4	·	·	1
Cc1ccc(S(=O)(=O)Nc2ccccc2N(C)S(=O)(=O)c2ccc(C)cc2)cc1	·	1.6	·	·	-10
CSCCC(NS(=O)(=O)c1ccc2c(c1)c(=O)n(C)c(=O)n2C)C(=O)NC1CCN(Cc2ccccc2)CC1 (stereo unspecified)	3%	-0.3	2	·	-16
CCCC12CN3CCN(CC(C3)/C1=N\NC(=O)c1ccccc1Cl)C2	0%	-0.8	6	·	-11
CCn1cc(C(=O)NC2CCCCC2)c(=O)c2cc(S(=O)(=O)N(C)C)ccc21	4%	-0.2	-1	-15	8	Arbovirus anti repeat=3

This is a subset. The share of hits here may be higher or lower than overall.
